Screens (PubChem)
Vaccinia mCherry – inhibitors of vaccinia virus infection (mCherry reporter signal). Vaccinia virus mCherry reporter infection, fluorescence; about a quarter of the inactives have no number. AID 720579. Potency, µM (highest dose often 36.5 µM), without a hit: at the highest dose activity change, negative = inhibition, most hits filed as inhibitors. 0.63% of 310,000 active; active = well fitted inhibition curve with a large enough effect; inconclusive = small, poorly fitted or top-dose-only effect; inactive = no such curve, though single readings can be large or run the other way; tested in A549 cells; further: nearly all actives have a fitted effect of over 35% in size; inactives centre near -10
VACV Venus inh – inhibitors of vaccinia virus (Venus reporter); Vaccinia virus Venus reporter expression, fluorescence; Potency, µM (highest dose often 36.5 µM), for the others: at the top dose activity change, negative = inhibition, hits mostly inhibitors; 0.46% of 330,000 active; AID 720580; active means well fitted inhibition curve with a large enough effect; inconclusive means small, poorly fitted or top-dose-only effect; inactive means no such curve, though single readings can be large or run the other way; tested in A549 cells; further: nearly all actives have a fitted effect of over 30% in size; inactives centre near -10
* = called active by the depositor; i = inactive; ? = inconclusive; · = not tested or not shown; & = joins results of further samples; [ ] = another dose, or the depositor's remark. On the % scale 0 is the no-effect control and ±100 the full control effect; potency means the concentration at half of the fitted maximal effect. Rows are unselected; any-hit rate near 0.88%.

Results follow in this order: VACV Venus inh, Vaccinia mCherry
> Cc1cccc(NC(=O)C2(C)CC3c4ccccc4C2c2ccccc23)c1C (configuration not stated)
 : -32%, -22%
> Cc1ccc(S(=O)(=O)N2CCN(C(=O)Cc3c(F)cccc3Cl)CC2)cc1
 : -7%, -20%
> COc1ccc(CNC(=O)CCCn2nc(C)c3c(C)n(-c4ccc(C)cc4)nc3c2=O)cc1OC
 : ?, ?
> CCCn1c(N)c(N(CCOC)C(=O)c2ccc(N3CCCC3=O)cc2)c(=O)[nH]c1=O
 : -8%, i
> CC1(c2ccc3ccccc3c2)NC(=O)N(CC(=O)N2CCN(Cc3ccc(C#N)cc3)CC2)C1=O (configuration not stated)
 : ?, ?
> CCCCC1Cc2[nH]c(=S)[nH]c(=O)c2C(c2ccc(C(C)C)cc2)O1 (configuration not stated)
 : -3%, 25%
> COc1ccc(N2C(S)=C(C#N)C(=O)NC23CCCCC3)cc1
 : -3%, -11%
> Cc1nn(C)c2c1c(C(F)(F)F)cc(=O)n2C(C)C(=O)NCc1ccccc1Cl (configuration not stated)
 : -3%, -4%
> O=C(NCc1ccc(F)cc1)c1ccccc1OCc1ccccc1
 : -21%, -2%
> CC1(C)Oc2ccc(C(=O)N3CCCC3)cc2N(CC(=O)NCc2ccccc2)C1=O
 : -8%, -15%
> Cc1ccc(CS(=O)(=O)Cc2ccc(C(=O)NCC3CCCO3)o2)cc1 (configuration not stated)
 : -9%, i
> CCC(C)N(C(=O)COC(=O)c1nc2nc(C)cc(C)n2n1)C1CCS(=O)(=O)C1 (configuration not stated)
 : -9%, i
> CC(C)CCN1C(=O)c2ccccc2C1c1nnnn1C(C)C (configuration not stated)
 : 3%, -9%
> CCCCNC(=O)C1CCN(S(=O)(=O)N2CCCCCC2)CC1
 : -2%, -9%
> CC1(C)Cc2c(c(N3CCCC3)nc3sc4c(N5CCN(CCO)CC5)ncnc4c23)CO1
 : ?, -19%
> COc1ccccc1/C=C(/NC(=O)c1ccc(Cl)cc1Cl)C(=O)O
 : 1%, i
> COc1cc(NC(=S)N2CCN(CCO)CC2)cc(OC)c1
 : -4%, i
> CCc1cccc(NC(=O)c2cccc3c2C(=O)N(C2CCCCC2)C3)c1
 : 1%, -5%
> CC1CCCCN1CCCNC(=O)CN1C(=O)CSc2ccc(S(=O)(=O)N3CCOCC3)cc21 (configuration not stated)
 : -4%, -4%
> Cc1ccc2c(c1)-c1onc(C(=O)N3CCN(c4cc(C)ccc4C)CC3)c1CO2
 : 0%, 5%
> CNc1ccccc1C(C)(C)c1cc(-c2ccc(F)cc2)no1
 : -24%, ?
> Cc1cc2c(=O)cc(-c3ccccc3)oc2c(C(=O)O)c1C
 : 9%, 22%
> CCc1noc(C)c1C(=O)N1CC(C)OC(C)C1 (configuration not stated)
 : -20%, ·
> COC(=O)C[N+](C)(C)CC#Cc1ccccc1
 : -16%, i
> CC(CCN1CCN(c2ccccc2)CC1)c1ccccc1 (configuration not stated)
 : -25%, -12%
> CCCn1c(SCC(=O)N(CC)c2c(N)n(Cc3ccccc3)c(=O)[nH]c2=O)nnc1-c1ccncc1
 : -16%, -6%
> COc1ccc(Nc2nc(N/N=C/c3ccc(N(C)C)cc3)nc(C)c2[N+](=O)[O-])cc1
 : -17%, -13%
> N=c1c2c3c(sc2ncn1CCCO)CCCC3
 : 1%, ·
> O=C1C2C3C=CC(CC3)C2C(=O)N1c1ccc(Br)cc1 (configuration not stated)
 : -11%, 3%
> O=C(Nc1ccccc1C(F)(F)F)N1CCC(N2CCCCC2)CC1
 : -10%, -18%
> O=C1C(Cl)=C(Cl)C(=O)C(Cl)=C1Cl
 : -7%, i
> O=C(O)C1(c2ccccc2)CCN(S(=O)(=O)c2cccs2)CC1
 : -10%, -5%
> CCN=C1SC(C(=O)Nc2ccccc2)CC(=O)N1CC (configuration not stated)
 : -7%, -13%
> COc1ccc(CC(=O)NNC(=S)NCC2CC2)cc1OC
 : 0%, -9%
> CC(C)OCCCN1CN(S(=O)(=O)c2ccc(Cl)cc2)c2nc3ccccc3nc21
 : -1%, i[1.46 µM]
> CN(CC(=O)Nc1ccc(SC(F)F)cc1)C1CCCCC1
 : -17%, -26%
> O=C(N/N=C/C=N/NC(=O)c1ccco1)c1ccco1
 : -2%, 0%
> CCC(C)(C)NC(=O)C1CCN(S(=O)(=O)c2ccc3c(c2)CCCN3C(C)=O)CC1
 : -7%, 2%
> O=C(COc1ccccc1)N1CCN(c2ncccn2)CC1
 : -1%, 3%
> CCc1c(C2(O)CCCCC2)[nH]c2ccc(C(F)(F)F)cc12
 : ?, -28%
> CCC[C@@H](CN1CCC[C@H]1CN1C(N)=NC[C@H]1CC(C)C)N1C[C@@H]([C@H](C)CC)N(CCCC2CCCC2)C1=N
 : -5%, -1%
> CC(C)N(C(=O)[C@H]1CC(CC(=O)NCc2cccc(C(F)(F)F)c2)C(=O)N2CCc3c([nH]c4ccccc34)[C@]12C)C(C)C (some centres not stated)
 : ?, -27%
> Clc1ccccc1N=C1SCCS1
 : -7%[7.34 µM], -27%[7.34 µM]
> O=C(CN1CCC(n2nnc3cc(F)ccc32)CC1)N1CCCc2ccccc21
 : -2%, -5%
> CC1(c2ccc3ccccc3c2)NC(=O)N(CC(=O)O)C1=O (configuration not stated)
 : -8%, -5%
> COC(=O)c1cc(NC(=O)CC2CCCC2)cc(C(=O)OC)c1
 : -4%, 10%
> NC(=O)C1CCN(C(=O)CCC(=O)c2ccc(Br)cc2)CC1
 : -5%, i
> CC(C)CCNC(=O)NC(=O)COC(=O)c1cc(S(=O)(=O)N2CCOCC2)ccc1N1CCCCC1
 : -11%, -13%
> CCOC(=O)N1CCN(c2ccc(C(F)(F)F)cn2)CC1
 : -15%, -13%
> COc1ccc(Cc2c(O)nc(SCC(=O)N3CCCCCC3)[nH]c2=O)cc1
 : 1%, ?
> Cc1cccc(N(CC(=O)NC2CCCC2)C(=O)CCCC(=O)Nc2ccccn2)c1
 : -21%, -4%
> O=C(O)CCC(=O)N1CCc2cc(S(=O)(=O)N3CC=C(c4ccccc4)CC3)ccc21
 : 1%, i
> O=C1c2ccccc2NC(c2ccc([N+](=O)[O-])cc2)N1O (configuration not stated)
 : -21%, ?
> Cc1cc(C(=O)NC(CC(C)C)C(=O)O)cc(C)c1[N+](=O)[O-] (configuration not stated)
 : -3%, -8%
> Cc1ccc(NC(=O)CCNS(=O)(=O)c2ccc3c(c2)CCC(=O)N3)c(Br)c1
 : -18%, -12%
> Cc1ccc(C(C)C)c(OCC(=O)NN=C2CCCC2)c1
 : -12%, i
> O=C(NCc1ccc(F)cc1)C1CCCCN1S(=O)(=O)c1ccc(F)cc1 (configuration not stated)
 : 1%, -11%
> CCOC(=O)/C(=N\NC(=O)c1ccccc1)c1ccccc1
 : -7%, -14%
> CC(C)C(=O)N1CCC1(C)C(=O)NS(=O)(=O)c1cccs1 (configuration not stated)
 : -6%, 27%
> CC12CC(O)C3c4ccc(O)cc4CCC3C1CCC2=O (configuration not stated)
 : -10%, -10%

The list goes on; it opens with the 2 that closed the last part.
Results follow in this order: VACV Venus inh, Vaccinia mCherry
> CC(C)C(=O)N1CCC1(C)C(=O)NS(=O)(=O)c1cccs1 (configuration not stated)
 : -6%, 27%
> CC12CC(O)C3c4ccc(O)cc4CCC3C1CCC2=O (configuration not stated)
 : -10%, -10%
> CN(C)CC(C)(C)CNS(=O)(=O)c1ccc(Cl)c(Cl)c1
 : -12%&-8%, -6%&-11%
> O=C(O)Cn1nnc(-c2ccc(OCc3ccccc3Cl)cc2)n1
 : -9%, i
> Cc1csc(SCC(=O)N2CCN(S(=O)(=O)c3ccc(Cl)cc3)CC2)n1
 : -17%, ?
> COc1ccc(Cl)cc1NC(=O)CN(c1ccccc1)S(=O)(=O)N(C)C
 : -14%, ·
> C=CCN(c1ccccc1)S(=O)(=O)c1cccc(C(=O)NCC(c2ccc(F)cc2)N2CCOCC2)c1 (configuration not stated)
 : ?, -16%
> CC1=C(C(=O)N(C(C)C)C(C)C)CC(CC(=O)NC(c2ccccc2)c2ccccc2)C(=O)N1CCC1=CCCCC1 (configuration not stated)
 : -6%, i
> COC(=O)CN1C(c2ccccc2O)Nc2ccc(Br)cc2C1c1ccccc1 (configuration not stated)
 : -8%, -19%
> CCNC(=S)NNC(=O)c1csc2c1CCC(C)C2 (configuration not stated)
 : -14%, i
> COc1ccc(C(=O)c2c3ccc([N+](=O)[O-])cc3[n+]([O-])n2CCCC(N)=O)cc1
 : ?, ?
> CN(CCC#N)C(=O)CSc1nnc(-c2ccco2)n1N
 : 2%, -2%
> COC(=O)c1ccc(OCC(O)Cn2nnc3ccccc32)cc1 (configuration not stated)
 : 1%, -6%
> C[C@H](CO)N1C[C@H](C)[C@@H](CN(C)Cc2ccc(Cl)c(Cl)c2)Oc2c(NC(=O)Cc3ccccc3)cccc2C1=O
 : ?, 5.6µM*
> CC(=O)c1cccc(NC(=O)Cn2cc3c(n2)CCCC3)c1
 : -1%, -11%
> O=C(NC(Cc1c[nH]c2ccccc12)C(=O)OCC(=O)c1cccc2ccccc12)c1cccs1 (configuration not stated)
 : -6%, -14%
> O=C(CSc1nnc2c(n1)[nH]c1ccccc12)NCc1ccccc1F
 : -11%, -11%
> COc1cccc(CNCCc2ccccc2)c1OC
 : 6%, -1%
> O=C(N/N=C/c1ccc(O)cc1)c1csc2c1CCCC2
 : -4%, i
> CCCOc1ccccc1NC(=O)c1ccc([N+](=O)[O-])cc1
 : -8%, -11%
> O=C(CCc1nc2ccccc2[nH]1)Nc1ccc2c(c1)OCO2
 : -17%, ·
> Cc1cc([N+](=O)[O-])cc2c1NC(=O)C2(O)N1CCCCCC1 (configuration not stated)
 : -10%, -15%
> O=C(COC(=O)c1ccccc1Br)Nc1ccc2[nH]c(=O)[nH]c2c1
 : -17%, -8%
> CCCCN(CC)S(=O)(=O)c1ccc(C(=O)N(CCCN(C)C)c2nc3cc(C)cc(C)c3s2)cc1
 : -12%, -11%
> Cc1ccc(S(=O)(=O)Nc2ccc3nc(-c4cccc(Cl)c4)oc3c2)cc1
 : -9%, -9%
> CCCCN(CCCC)CCNC(=O)c1cc(=O)[nH]c2ccc(S(=O)(=O)N3CCCCCC3)cc12
 : -7%, -9%
> O=C(NCCCOc1ccc([N+](=O)[O-])cc1Cl)OCc1ccccc1
 : -5%, -2%
> Cc1cccc(NC(=O)c2sc3nc(-c4ccccc4)cn3c2C)c1C
 : -11%, -12%
> COc1ccc(OC)c(C(=O)NC(CC(N)=O)c2ccc(NCc3ccc(F)c(F)c3)c([N+](=O)[O-])c2)c1 (configuration not stated)
 : -17%, ?
> Cc1ccc2nc(-c3cccs3)c(Nc3c(C)cccc3C)n2c1
 : -15%, -24%
> COc1ccc(S(=O)(=O)N2CCC(C(N)=O)CC2)cc1C(=O)N1CCCCCC1
 : -3%, i
> O=C(NNC(=O)c1cccs1)c1ccc2ccccc2c1
 : -20%, -9%
> Clc1ccccc1OCCSc1nnc(-c2cccs2)o1
 : -4%, -6%
> Cc1cccc(-n2ccc(=O)c(C(=O)Nc3ccc(S(=O)(=O)Nc4onc(C)c4C)cc3)n2)c1
 : -11%, i
> O=C(COC(=O)CC(c1ccccc1)c1ccccc1)Nc1cccc(F)c1
 : -10%, -11%
> CCc1ccc(-c2cc(C)no2)cc1S(=O)(=O)N1CCN(c2ccccc2)CC1
 : -15%, ?
> Cc1ccccc1N(C)S(=O)(=O)c1ccc2[nH]cc(C(=O)NCC3CCCO3)c(=O)c2c1 (configuration not stated)
 : -22%, -29%
> CCOc1cc(N2CCOCC2)c(OCC)cc1NC(=O)c1nc2nc(C)cc(C)n2n1
 : -6%, ·
> CC1CN(S(=O)(=O)c2cc(C(=O)N(C)Cc3cccs3)ccc2Cl)CC(C)O1 (configuration not stated)
 : -25%, -26%
> COc1cc([N+](=O)[O-])ccc1N
 : 2%, i
> CCOC(=O)c1nnn(CC(=O)Nc2cc(F)ccc2F)c1C(=O)OCC
 : -1%, -10%
> OCc1cn(-c2ccccc2)nc1-c1cccnc1
 : -14%, -5%
> O=C1CCc2cc(S(=O)(=O)Nc3ccccc3)cc3c2N1CCC3
 : -12%, i
> CCn1c(SCC(=O)N/N=C/c2cc(OC)c(O)c(OC)c2)nc2ccccc21
 : -8%, -4%
> Cc1c(C(=O)NCCc2ccccn2)cnn1-c1nccc(-c2cccs2)n1
 : -8%, -16%
> COc1ccc(C(=O)N2CCCC2)cc1S(=O)(=O)N1CCOCC1
 : -4%, 1%
> Cc1ccc(CNC(=O)COC(=O)Cn2nc(C)c([N+](=O)[O-])c2C)cc1
 : -8%, i
> COC(=O)[C@H]1C[C@@]2(O)CN(S(=O)(=O)c3ccc(C)cc3)C[C@@]2(OC(=O)NCc2ccco2)C[C@H]1C(=O)OC
 : -12%, i
> CC(=O)OCC(=O)N1N=C(c2ccc3ccccc3c2)CC1c1ccccc1 (configuration not stated)
 : -9%, -9%
> Cc1[nH]n(-c2ccccc2)c(=O)c1/C=N/NC(=O)c1cccc([N+](=O)[O-])c1
 : -8%, ·
> NS(=O)(=O)c1ccc(CCn2c(=S)[nH]c3ccccc3c2=O)cc1
 : -16%, -15%

Quoted at random: 4 compounds from above, in no set order.
Results follow in this order: VACV Venus inh, Vaccinia mCherry
> CC(CCN1CCN(c2ccccc2)CC1)c1ccccc1 (configuration not stated)
 : -25%, -12%
> CCOC(=O)N1CCN(c2ccc(C(F)(F)F)cn2)CC1
 : -15%, -13%
> COc1ccc(CC(=O)NNC(=S)NCC2CC2)cc1OC
 : 0%, -9%
> COc1ccc(C(=O)N2CCCC2)cc1S(=O)(=O)N1CCOCC1
 : -4%, 1%
